Source: PubChem BioAssay (several laboratories)
LANA-H2B inh: blockers of LANA interaction with H2A/H2B – biochemical, FP readout, HTS, primary screen; Protein LANA1 (Human herpesvirus 8 type P (isolate GK18)), Q9QR71; inhibition, % (no concentration beside the values); 320,000 tested, 0.6% active; cell-free LANA-H2A/H2B peptide, fluorescence polarization; AID 2629, 2010; in the data active = inhibition mostly above about 10%, no sharp cut-off; inactive = mostly below about 6.7%;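 also: stock transfer was 7.5 nL into about 10 µL; 0% = median of vehicle wells and 100% = median of positive control wells; one replicate is shown; the record names a cut of 25% in any replicate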
Calb FLC: C. albicans growth inhibition with fluconazole, primary screen, CaCi-2 strain, Alamar Blue fluorescence | C. albicans CaCi-2 (fluconazole-resistant clinical isolate) + fluconazole, 48 h | growth inhibition, % (test concentration not listed) | 300,000 tested, 0.57% active;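 active = most replicates above 75%; inconclusive = exactly half above 75%; inactive = most below 75%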;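 also: all wells also contain fluconazole at 8 µg/ml as a sub-toxic cotreatment; 0% = median of DMSO wells and 100% = median of geldanamycin control wells; wells of about 8 µL received 7.5 nL stock; the first replicate is given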
A1 inh: caspase 3/7 activation in MEF A1-2A-BIM cells, primary screen, A1 inhibitor project, cell-based, luminescence, HTS. caspase activation, % (no concentration beside the values). Caspase-Glo 3/7 luminescence, 3 h; percent of clofoctol response, vehicle zero. 330,000 tested, 0.066% active. AID 2462, 2010;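 active = over half of replicate activation scores above 10%, or exactly half above 10 with the replicate mean above 10; inconclusive = replicate mean below 10 yet half the replicates above 10; inactive = over half of replicates below 10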;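 also: wells of about 30 µL received 50 nL stock; many hits fall short of the cut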
RanGTP-Imp inh: inhibitors of RanGTP-importin-beta interaction, primary screen, biochemical, FRET, CFP-Ran, YFP-importin-beta, homogeneous | Ran GTPase (GTP-bound) - importin-beta complex | cell-free CFP-Ran/YFP-importin-beta FRET ratio | inhibition, % (concentration not given with the values) | 300,000 tested, 1.1% active | AID 2216, 2009;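 active = most replicates above 15%; inconclusive = exactly half above 15%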;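 also: 0% = DMSO wells and 100% = Ran loaded with GDP instead of GTP; wells of about 40 µL received 100 nL stock; the first replicate is given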
T cruzi repl: inhibitors of intracellular T. cruzi growth, primary screen, luminescence, NIH3T3 host cells. T. cruzi beta-gal in NIH3T3, 90 h. inhibition, % (test concentration not listed). 300,000 tested, 1.4% active. AID 1885, 2009;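 active = mean inhibition across valid replicates above about 55%, limit read from the data; inconclusive = mean below that limit but half or more replicates reach it; inactive = mean below it, under half of replicates reach it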;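 also: signal also drops with host cell toxicity which is not excluded here; 0% = plate median of DMSO wells and 100% = zero luminescence signal; higher percent means less beta-gal luminescence so fewer parasites; stock transfer was 50 nL into about 50 µL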
Beta2AR agonist: beta2AR agonists driving receptor internalization, primary screen, cell-based, FAP fluorogen, flow cytometry. Beta-2 adrenergic receptor (Homo sapiens), P07550. Am2.2-beta2AR cells; reference of the scale not given here. response, % (test concentration not listed). 340,000 tested, 0.43% active;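 active = response above a set limit, near 3 SD of response in nonfluorescent compounds, cut at about 42% in these data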;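 also: stock transfer was 100 nL into about 11 µL; a reference agonist was the positive control; negative values mostly stem from fluorescent compounds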
Target sequence (P07550 whole entry, looked up): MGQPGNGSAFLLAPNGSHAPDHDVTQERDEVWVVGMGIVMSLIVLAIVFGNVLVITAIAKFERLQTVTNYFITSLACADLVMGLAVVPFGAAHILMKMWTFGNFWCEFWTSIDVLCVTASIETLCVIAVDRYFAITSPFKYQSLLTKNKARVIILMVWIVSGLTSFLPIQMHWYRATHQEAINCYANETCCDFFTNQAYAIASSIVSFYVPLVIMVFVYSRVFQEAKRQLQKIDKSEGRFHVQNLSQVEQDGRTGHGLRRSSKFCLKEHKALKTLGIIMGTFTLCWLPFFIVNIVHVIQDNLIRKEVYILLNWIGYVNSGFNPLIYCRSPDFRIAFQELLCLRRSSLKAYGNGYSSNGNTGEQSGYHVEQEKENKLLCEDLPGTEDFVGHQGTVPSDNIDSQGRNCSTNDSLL
UCH37 DUB inh: inhibitors of human UCH37 deubiquitinase, primary screen, biochemical, Ub-AMC cleavage, fluorescence; Ubiquitin carboxyl-terminal hydrolase isozyme L5 (Homo sapiens), Q9Y5K5; purified proteasome/UCH37; inhibition, % (test concentration not listed); 330,000 tested, 0.33% active;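 active = mean of two replicates above 20%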;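 also: 0% = compound-free wells with enzyme and 100% = wells lacking proteasome; stock transfer was 100 nL into about 20 µL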
Target sequence (Q9Y5K5 whole entry, looked up): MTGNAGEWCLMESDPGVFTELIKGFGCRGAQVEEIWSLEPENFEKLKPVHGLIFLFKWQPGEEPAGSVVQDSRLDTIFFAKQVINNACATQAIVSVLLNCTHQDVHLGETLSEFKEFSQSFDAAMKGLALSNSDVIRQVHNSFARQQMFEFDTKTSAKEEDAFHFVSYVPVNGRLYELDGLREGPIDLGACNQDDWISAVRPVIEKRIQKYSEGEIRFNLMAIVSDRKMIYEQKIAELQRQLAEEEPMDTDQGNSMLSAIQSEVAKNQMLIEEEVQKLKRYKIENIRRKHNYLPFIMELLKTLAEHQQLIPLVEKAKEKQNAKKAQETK
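Material: human UCH37 enzyme supplied as purified proteasome complex. Measure: % inhibition of Ub-AMC cleavage fluorescence. Medium: pH 7.4 Tris-HCl (50 mM) with ovalbumin, ATP-MgCl2, DTT. Times: 30 min preincubation with enzyme, 25 min cleavage at room temperature. Detection: AMC fluorescence intensity at 355/460 nm.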
Beta apoptosis: inhibitors of cytokine-induced beta cell apoptosis, primary screen, luminescence; INS-1E cytokine-induced death, ATP luminescence, 48 h; percent of positive-control rescue, neutral wells zero; protection from apoptosis, % (test concentration not listed); 300,000 tested, 0.8% active;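 active = all replicates at 75% or more, or half of them and the mean; inconclusive = half reach 75% but not the mean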;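 also: 0% = cytokine-treated negative control wells and 100% = positive control rescue; higher means more ATP so stronger rescue from cytokine killing; wells of about 40 µL received 100 nL stock; the first replicate is given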
The depositor's hits bear a star; ? = inconclusive; . = no result given.

SMILES	LANA-H2B inh	Calb FLC	A1 inh	RanGTP-Imp inh	T cruzi repl	Beta2AR agonist	UCH37 DUB inh	Beta apoptosis
O=C(Cc1ccc(Cl)cc1)NNc1c(F)c(F)cc(F)c1F	27*	-13	0.6	5.2	14	7	0.7	-4
CC(OC(=O)c1nn(C(C)C)c(=O)c2ccccc12)C(=O)Nc1ncc(Cl)cc1Cl (stereo unspecified)	.	-7	0.2	-2.2	-7	1	3.8	-3
Cc1cc(C)n(-c2nc(-c3ccc(Cl)cc3)cs2)n1	-0.8	0	0.1	-0.2	4	26	1.0	1
Cc1ccc(S(=O)(=O)N2CCN(C(=O)c3n[nH]c(=O)c4ccccc34)CC2)c(C)c1	0.2	.	-0.5	.	.	1	-0.4	3
COc1cccc(NC(=O)c2nc(S(C)(=O)=O)ncc2Cl)c1	3.5	1	-0.2	?	1	16	.	2
COc1ccccc1NS(=O)(=O)c1cccc(N=C2N=C(N)c3ccccc32)c1	-3.7	3	0.1	.	-7	-2	7.3	-8
CCCCCc1c(C)nc(N2CCc3ccccc32)[nH]c1=O	.	-3	.	-0.3	-23	-3	-2.7	.
O=C(Cc1ccccc1)NNS(=O)(=O)c1ccccc1[N+](=O)[O-]	2.7	-2	-0.1	0.4	-10	3	4.6	-7
COc1ccc(C(=O)N(C)CC2CCN(CCc3cccc(C(F)(F)F)c3)CC2)cc1C	-4.4	5	0.7	-3.2	45	29	3.5	-8
CCOc1ccc(NC(=S)NC(=O)C2CCCC2)cc1	1.4	-6	0.5	-3.2	1	-19	4.2	-8
Cc1ccc(NS(=O)(=O)c2ccc3c(c2)C(=O)c2ccccc2C3=O)c(C)c1	-10	.	0.3	.	.	-6	-2.9	2
CC(=O)NC1=NN(C(C)=O)C(C)(c2cccnc2)S1 (stereo unspecified)	3.1	8	0.9	-2.1	-4	-5	2.7	1
COC(=O)C1=CN(Cc2ccc(OC)cc2)C=C(C(=O)OC)C1c1cc(OC)c(OC)c(OC)c1	-3.0	4	0.0	13	37	12	-459	.
O=C(NCc1ccco1)C1CCN(C(=O)c2ccc(Cl)cc2)CC1	2.4	.	-0.7	.	.	7	0.9	4
CC(=O)N(C(C)=O)c1cccc2c(N(C(C)=O)C(C)=O)cccc12	0.4	-16	0.1	-4.0	-7	-5	4.1	-1
CNc1nn(-c2cccc(Cl)c2)nc1N	3.6	12	0.2	3.3	20	8	4.4	-1
Clc1cccc(Cl)c1NC1=NCCC1	4.5	-9	-0.2	2.5	-14	11	0.5	-1
CC(C)Oc1ccc(C(=O)Nc2ccc(Cl)c(S(=O)(=O)Nc3ccc(Cl)cc3)c2)cc1	.	1	-1.0	3.6	37	10	1.6	7
COc1ccc2cc(CCN3C(=O)c4ccccc4C3=O)c(=O)[nH]c2c1	8.9	-1	0.2	20*	-22	6	-51	-2
CC(C)COC(=O)c1nnsc1NC(=O)Nc1ccccc1	0.2	10	0.2	-0.2	-24	-1	-1.4	35
COc1cc(NC2c3ncccc3C(=O)N2Cc2ccco2)cc(OC)c1 (stereo unspecified)	4.7	-12	-0.4	4.4	-1	2	3.0	-5
O=C1c2ccccc2C(=O)N1CNc1ccccc1	4.5	-7	1.0	1.4	-8	-2	4.6	4
Cc1cccc(NC(=O)c2cnc3sccn3c2=O)n1	1.1	-3	-1.1	-3.5	-6	-7	8.3	-1
COc1ccc(-c2sc(C(=O)c3ccc(Cl)cc3Cl)cc2CC(=O)O)cc1	1.2	21	0.8	0.0	-17	1	-43	3
Cc1nn(CC(=O)OCC(=O)NCCc2ccc(F)cc2)c(C)c1[N+](=O)[O-]	2.9	.	0.6	.	.	-4	-0.5	-2
CC(C(=O)O)c1ccc(CC2CCCC2=O)cc1 (stereo unspecified)	2.0	.	-1.0	-1.4	12	-7	1.3	-3
CCN(CC)CCN(C(=O)CCOc1ccccc1)c1nc2c(F)cc(F)cc2s1	2.5	21	2.3	1.4	56*	21	1.3	-4
OCC1(CCc2ccccc2)CCN(C/C=C/c2ccccc2)CC1	-2.1	40	0.2	2.2	14	-8	-1.4	3
Cc1ccc(NC2=NCC(=O)N2Cc2ccc3c(c2)OCO3)c(C)c1	0.0	16	-0.4	1.5	10	-3	1.8	-1
COc1ccc(CCC(=O)Nc2ccc(S(=O)(=O)N3CCOCC3)cc2)cc1	-6.4	2	0.4	5.3	-20	-2	3.4	-3
O=C(Nc1nnc(C2=COCCO2)o1)c1ccc([N+](=O)[O-])s1	-6.1	7	-5.0	-0.5	46	7	14	.
Cc1ccc(C(=O)Nc2cc(C(F)(F)F)ccc2N2CCCCC2)cc1[N+](=O)[O-]	0.6	7	-0.7	-2.8	41	3	5.5	14
O=C(NC(N1CCCC1)C(Cl)(Cl)Cl)c1ccccc1 (stereo unspecified)	0.6	-29	-0.2	1.8	3	10	-34	-8
CCOC(=O)Cn1c(=O)oc2cc(S(=O)(=O)N3CCC(N4CCCCC4)CC3)ccc21	3.7	-4	0.0	2.8	-7	-6	0.7	5
COc1cc(CO)c(OC)c([N+](=O)[O-])c1	4.2	25	-0.3	-2.1	-9	-3	-0.7	-5
Clc1ccc(C2=NCCN2)cc1	-1.1	-5	-0.3	-0.4	62*	8	0.8	-13
COc1ccc2c(c1)c(C(=O)N/N=C/c1ccccc1Cl)c(C)n2C	-5.2	2	0.3	0.5	11	-2	.	.
CCn1nc(NC(=O)Cc2ccc(OC)cc2)c2cc3cc(C)ccc3nc21	-2.2	3	0.1	19*	-4	-2	-26	8
Cc1cc(/C=C2/NC(=O)NC2=O)c(C)n1-c1ccccn1	-5.2	8	0.0	1.6	8	-7	10	1
COc1ccccc1N1CCN(C2CCN(C3CCC(c4ccccc4)CC3)CC2)CC1 (stereo unspecified)	1.1	-5	0.0	-2.3	40	.	3.8	-10
CN1CCN(c2ccc(NC(=O)Cc3ccccc3)cc2)CC1	-2.8	-3	1.6	0.1	2	7	-0.3	1
O=C(NNC(=O)c1cccc(S(=O)(=O)N2CCCCC2)c1)c1ccccc1	-1.2	.	-0.4	.	.	13	2.6	-1
O=C(C[n+]1cc(-c2ccc(F)cc2)n2c1CCC2)Nc1nc(-c2ccccc2)cs1	2.6	-18	0.5	-1.0	2	-11	6.6	-6
COC(=O)c1cccc(Oc2nc3c(c(=O)n(C)c(=O)n3C)n2Cc2ccc(C)cc2)c1	0.9	3	1.1	4.6	7	2	2.1	-4
CC(C)(C)NC(=O)CN1C(=O)NC(c2ccccc2)(c2ccccc2)C1=O	5.4	2	0.3	-6.5	-7	-5	5.4	-3
O=C(COC(=O)C1CC2CCCC(C1)C2=O)c1cccc(Br)c1 (stereo unspecified)	-3.4	.	0.3	.	.	1	5.5	-7
O=C(Nc1ccccc1F)NC1CCCc2ccccc21 (stereo unspecified)	-1.4	-30	-1.1	0.7	3	-1	1.5	0
CCCCCCCN=C(C)c1ccccc1O	-1.0	-14	0.0	0.8	2	-13	3.5	-5
COc1ccc(OC)c2c(=O)cc(C(=O)O)[nH]c12	2.0	-3	0.4	-2.2	-2	-1	6.3	-1
CCOC(=O)c1c(C)oc2ccc(OC(=O)c3cccs3)cc12	-2.2	12	-0.1	2.8	1	2	3.3	4
Next part.
SMILES	LANA-H2B inh	Calb FLC	A1 inh	RanGTP-Imp inh	T cruzi repl	Beta2AR agonist	UCH37 DUB inh	Beta apoptosis
CC(=O)c1ccc2c(c1)Nc1ccccc1S2	2.1	-3	0.5	-1.9	32	-8	-0.3	4
Cc1ccc(-n2c(C)cc(=O)cc2C)c(C)c1	-1.5	-3	0.3	-0.2	-12	1	1.8	1
OCC1(CCc2ccccc2)CCCN(CCCC(F)(F)F)C1 (stereo unspecified)	4.8	2	2.0	1.6	9	-14	1.5	.
O=C(N/N=C/c1cccc([N+](=O)[O-])c1)C1CC1c1ccccc1 (stereo unspecified)	1.1	9	-0.6	-0.7	10	9	.	-4
O=C(Nc1ccc(F)cc1F)c1ccco1	1.8	-4	-0.8	1.8	-19	-1	1.6	-1
Cc1ccc(Cn2c(=O)oc3ccccc32)cc1	3.3	10	0.8	4.4	-2	3	3.1	-6
COC(=O)C1CCN(Cc2ccc(C)cc2)CC1	-2.3	0	-0.4	4.6	-12	13	3.4	.
CC(O)c1nc2ccccc2n1CCCOc1ccccc1 (stereo unspecified)	-5.7	10	0.2	-3.3	-7	-10	0.1	-2
CC(=O)Nc1ccc(Nc2ncnc3c2cnn3-c2ccccc2)cc1	0.5	16	-0.2	-0.2	3	-2	-89	-5
CCOC(=O)C(=NC(C)(C)C)NNc1cc(Cl)ccc1Cl	2.8	-6	-1.2	5.2	20	3	6.8	-5
COc1ccc(Cl)cc1NC(=O)CN(C)C(=O)c1cc(C)oc1C	-3.0	.	-0.2	.	.	-9	0.9	-3
Cc1ccc(C(=O)Nc2cccc(C(=O)N/N=C/c3ccc(O)cc3)c2)cc1	-13	1	-0.5	-0.4	9	13	.	0
Cc1ccc(NC(=O)C(OC(=O)c2ccc(F)cc2)c2ccccc2)cc1Cl (stereo unspecified)	5.1	-54	-0.1	3.6	-2	2	3.3	1
Cc1cc(=O)n2nc(N3CCC(C(=O)Nc4c(F)c(F)c(F)c(F)c4F)CC3)sc2n1	1.6	39	0.2	2.3	10	-2	-5.4	-6
O=C(CN1CCSC1=NCc1ccccc1)c1ccc(Cl)c(Cl)c1	-0.2	18	0.2	1.2	9	0	0.1	-5
Cn1c(=O)c2c(nc(NC3CCCCC3)n2CC(=O)C23CC4CC(CC(C4)C2)C3)n(C)c1=O	-0.7	3	0.5	0.7	5	2	0.9	31
O=C(O)C(NC(=O)C1CCCN1C(=O)OCc1ccccc1)c1ccccc1 (stereo unspecified)	-1.5	-4	0.1	-1.2	-3	4	0.2	-9
Cc1cccc(/C=N\NC(=O)c2ccc(Cl)cc2)c1O	-1.5	2	-1.1	-5.6	64*	2	.	96*
CC(C)(C)c1ccc(C2=CC(c3ccccc3F)n3ncnc3N2)cc1 (stereo unspecified)	-1.0	-9	0.9	25*	-17	16	-3.6	-6
Fc1ccc(N=Cc2ccc[nH]2)cc1	2.6	-4	-0.9	0.1	1	0	4.6	-1
CN(c1cccc(NC(=O)c2ccccc2N(C)S(C)(=O)=O)c1)S(C)(=O)=O	2.1	-3	0.2	-2.4	2	2	2.5	8
COc1ccc(C(=O)Nc2ccc(C(=O)N3CCCC3)cc2)cc1[N+](=O)[O-]	7.0	-13	-1.3	0.6	-12	4	1.8	-3
C#CCn1cc(/C=N/NC(=O)COc2cccc3cccnc23)c2ccccc21	-3.4	-9	0.5	4.9	6	-3	.	-2
